High-throughput results (PubChem BioAssay)
CSC inhib – blocks cancer stem cells. inhibition, % at 7.5 µM. AID 2717. 300,000 compounds, 1.1% hits. cancer stem cell-like cells viability, luminescence;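 active means mean at 75% or more and at least half the replicates too; tested in HMLE shEcad cells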;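 further: 0% = median of negative and 100% = median of positive control wells; the first replicate is given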
UUG fidelity – alters start codon recognition fidelity in yeast. S. cerevisiae UUG-firefly luciferase reporter, luminescence/redox ratio. AID 602363. activity score, % at 18.7 µM. 350,000 compounds, 0.13% hits;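 active means replicate mean at a twofold rise or more, about +100% in these data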;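 further: firefly luciferase made from a UUG start codon reports start codon fidelity; reporter light over untreated wells divided by growth signal over untreated wells; some hits fall short of that in this replicate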
HIV Env fusion – HIV envelope-mediated fusion inhibition. AID 651610. 360,000 compounds, 1.1% hits. inhibition, % at 12.3 µM. HeLa-JRFL Env/CEM21 cell fusion, luciferase;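 active means mean replicate inhibition score of at least 50 and every replicate individually at or above 50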;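 further: 0% = plate neutral controls and 100% = maraviroc near 300 nM; one replicate is shown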
Rce1 inhib – yeast Ras-converting enzyme inhibition; AID 2563; Q03530; 290,000 compounds, 0.27% hits; yeast membranes, quenched prenylated peptide cleavage fluorescence; calls only;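 active means fall in fluorescence gain of 50% or more versus controls, with final raw signal at or below 3038400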;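 further: plate controls were neutral control wells for no effect and wells lacking membranes for full effect; tested at 10 µM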
PABP FP inh – PABP-poly(A) binding inhibition | P11940 | PABP-poly(A) RNA binding, fluorescence polarization | inhibition, % at 35 µM | 290,000 compounds, 1% hits | AID 2014;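 active means 50% or more with normal probe brightness, or confirmed in later tests; about a fifth of its hits are not listed in these tables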;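 further: calls also rest on retests at 20 µM and on dose response follow-up; controls were probe without protein and protein plus probe with vehicle; some compounds called inactive have numbers as strong as hits; many hits fall short of the cut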
Target sequence (P11940 whole entry, looked up): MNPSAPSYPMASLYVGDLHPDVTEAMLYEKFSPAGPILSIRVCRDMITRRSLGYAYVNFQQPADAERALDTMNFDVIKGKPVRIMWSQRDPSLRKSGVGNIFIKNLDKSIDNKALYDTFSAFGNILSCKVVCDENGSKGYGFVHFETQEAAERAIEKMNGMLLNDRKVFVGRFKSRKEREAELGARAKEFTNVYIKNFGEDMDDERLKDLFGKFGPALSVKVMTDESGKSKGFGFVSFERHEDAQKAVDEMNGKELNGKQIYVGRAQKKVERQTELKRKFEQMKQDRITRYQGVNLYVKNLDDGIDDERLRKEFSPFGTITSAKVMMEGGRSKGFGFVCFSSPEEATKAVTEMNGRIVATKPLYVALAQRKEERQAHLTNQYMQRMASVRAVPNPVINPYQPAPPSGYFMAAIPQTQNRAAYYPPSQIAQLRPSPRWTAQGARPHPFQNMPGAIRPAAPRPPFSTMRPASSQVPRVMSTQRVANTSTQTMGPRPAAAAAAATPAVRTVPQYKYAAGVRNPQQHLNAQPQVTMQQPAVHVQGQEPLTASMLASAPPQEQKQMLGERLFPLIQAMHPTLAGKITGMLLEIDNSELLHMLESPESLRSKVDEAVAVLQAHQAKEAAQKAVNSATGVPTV
MT1-MMP act inh – blocks activation of human MT1-MMP; GFP/RFP ratio change, % at 20 µM; 360,000 compounds, 0.061% hits; HT1080 RFP-PRO-GFP cells, GFP/RFP ratio fluorescence, overnight; percent of plate control window, DMSO zero;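 active means GFP/RFP ratio change of at least 30% with cell ATP level not reduced by more than half and red fluorescence within 50% of control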; further: strong numbers were not always called active
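Material – HT1080 RFP-PRO-GFP cells · Control set – DMSO wells and RFP-L50D-GFP cells · Incubation – overnight cell settling, then overnight compound exposure, 37 °C, 5% CO2 · Compound dosing – single-point 20 µM compound, 1% DMSO · Read-out – GFP/RFP fluorescence ratio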
eIF4H inh – inhibitors of RNA binding by human eIF4H. Q15056. eIF4H fluorescence polarization binding assay. inhibition, % at 35 µM. 290,000 compounds, 0.94% hits. AID 2012;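 active means 50% or more with normal probe brightness, or confirmed in later tests; about a fifth of its hits are not listed in these tables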;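 further: calls also rest on retests at 20 µM and on dose response follow-up; 0% = protein and probe with vehicle and 100% = probe without protein; strong numbers were not always called active; many hits fall short of the cut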
eIF4H inh retest – recorded beside eIF4H inh, whose call it bears; inhibition, %; compound at 20 µM; confirmation average;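 mean of two retest wells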
PABP FP inh retest – further read-out of PABP FP inh, marked with its call; inhibition, %; compound at 20 µM; confirmation repeats;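 mean of two retest wells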
MT1-MMP act inh RFP – second read-out of MT1-MMP act inh, no call of its own (marks repeat the call); RFP signal change, %; measured here: RFP expression control read;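 0 = vehicle wells; hits needed this value within 50% of zero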
Active calls of the source: *; i = inactive; / = not tested or not shown.

SMILES | CSC inhib | UUG fidelity | HIV Env fusion | Rce1 inhib | PABP FP inh | MT1-MMP act inh | MT1-MMP act inh RFP | eIF4H inh | others
CCOc1ccc(OCC)c(NC(=O)CSc2nnc(-c3cccnc3)o2)c1 | 19 | -4 | -15 | i | 2 | -3 | 3 | -1
O=C(CNC(=O)c1ccccc1)OCC(=O)N1c2ccccc2Sc2ccccc21 | -7 | / | 26 | i | 7 | 1 | 0 | 2
Cc1n[nH]c(C)c1CCCOc1ccccc1 | -7 | -9 | / | i | 13 | 1 | -3 | -4
CCCn1c(NC(=O)C2CCN(C(=O)c3ccccc3C)CC2)nc2ccccc21 | 1 | -14 | 21 | i | / | 11 | -4 | /
COc1ccccc1NC(=O)Nc1ccccc1C(=O)NCCCN1CCOCC1 | -9 | / | 5 | i | 1 | -2 | -3 | 8
COc1ccc(C2(CNC(=O)c3cccc([N+](=O)[O-])c3)CCOCC2)cc1OC | 12 | / | / | i | -4 | 6 | 7 | -3
CC1CCc2cc(F)cc3c(O)c(C(=O)NCc4ccco4)c(=O)n1c23 (stereo unspecified) | / | -12 | / | i | 2 | 7 | 12 | -4
CCc1ccccc1NC(=O)N1CCC(NC(=O)C(Cc2ccccc2)NC(C)=O)CC1 (stereo unspecified) | -9 | / | -8 | / | -5 | -1 | 2 | 0
Nc1cc(=O)[nH]c(SCC(=O)c2ccc(O)cc2O)n1 | -3 | -5 | -86 | i | 5 | 1 | 1 | 0
Cc1cccc(N2CCN(C(=O)CN3C(=O)NC(C)(C)C3=O)CC2)c1C | -4 | / | 0 | i | -2 | 3 | -2 | -4
Cn1c(=O)[nH]c(=O)c2c1nc(NCc1ccccc1)n2CC(O)c1ccccc1 (stereo unspecified) | -3 | -3 | / | i | 4 | 4 | 0 | 13
C=C(C)C(=O)Nc1cccc(C2=NOC3(C2)C[C@H](C(N)=O)N(C(=O)CC)C3)c1 (stereo partly specified) | 1 | -17 | / | i | 27 | -2 | 4 | 92* | eIF4H inh retest=60*;PABP FP inh retest=29
COc1ccc(CCC(=O)Nc2nnc(C(C)(C)C)s2)cc1 | -11 | -12 | 12 | i | -15 | -5 | -4 | 2
O=C(CCC1CCCN(C(=O)c2ccc3c(c2)OCCO3)C1)NCc1ccccc1F (stereo unspecified) | 9 | 2 | -10 | i | -1 | -12 | -5 | 5
Cc1c(Cl)c([N+](=O)[O-])nn1Cc1ccc(C(=O)N/N=C\c2cccc(Br)c2)o1 | 5 | -7 | / | i | -9 | 1 | -9 | -5
Nc1nc(Nc2ccc(Cl)cc2)c(NC=O)c(=O)[nH]1 | -1 | -7 | -4 | i | / | 2 | 4 | /
O=C(CCNS(=O)(=O)c1cccc2nsnc12)Nc1ccc2c(c1)OCCO2 | -17 | -2 | -17 | i | 0 | 4 | 3 | -4
O=C(NCc1cc(Cl)cc(Cl)c1)c1csc([C@@H]2C[C@H](O)[C@@H](CO)O2)n1 | / | -20 | -3 | / | / | 0 | 3 | /
CSc1nc(C)cc(OCCNS(=O)(=O)c2cc(C)ccc2C)n1 | / | -17 | 34 | i | 2 | 9 | -3 | -2
CCC(=O)N1CCc2cc(S(=O)(=O)CCC(=O)Nc3ccc(C)c(F)c3)ccc21 | -4 | -25 | -6 | / | -6 | -4 | -7 | 2
CC(=O)N1CCC2(CC1)C(C#N)=C(N)Oc1n[nH]c(CSc3ccc(C)cc3)c12 | 1 | -11 | 13 | i | 2 | 1 | 0 | 2
CS(=O)(=O)c1sc2nc(-c3ccccc3)cc(-c3ccccc3)c2c1N | 15 | -7 | 0 | i | 117* | -10 | -7 | 98*
O=[N+]([O-])c1ccccc1OCCCNCc1ccccc1 | 5 | / | 4 | i | 6 | 0 | 4 | 14
Cc1cc(C)c(S(=O)(=O)N(C2=NCCS2)S(=O)(=O)c2c(C)cc(C)cc2C)c(C)c1 | 9 | -18 | / | i | -5 | 1 | -1 | 3
OC[C@@H]1CN(Cc2ccc(Cl)cc2)C[C@H](n2cnc3c(Nc4ccccc4)ncnc32)O1 | / | -6 | -2 | / | / | 8 | -3 | /
SMILES | CSC inhib | UUG fidelity | HIV Env fusion | Rce1 inhib | PABP FP inh | MT1-MMP act inh | MT1-MMP act inh RFP | eIF4H inh | others
O=C(c1ccc(-n2ccnc2)cc1)N1CCCC(CO)(Cc2cccc(Cl)c2)C1 (stereo unspecified) | 23 | -4 | 11 | i | -2 | 3 | 0 | -10
O=C(Cn1cncn1)NCc1cc(F)ccc1F | -6 | -6 | 2 | i | -1 | -1 | 4 | -6
COc1ccc(N2CCN(c3nc4ccccc4nc3NS(=O)(=O)c3ccccc3)CC2)cc1 | 2 | -11 | / | i | 17 | -3 | 0 | 11
O=C1CC(c2cccs2)Sc2nc3ccccc3n21 (stereo unspecified) | -5 | -7 | -191 | i | 0 | 3 | 2 | 3
Cc1ccccc1-c1nnc(CN2CCN(C(=O)c3ccco3)CC2)o1 | 17 | -2 | -3 | / | 2 | -1 | -1 | -5
COC(=O)C1=C(N)Oc2cc(C)n(Cc3ccccc3)c(=O)c2C1c1ccccc1 (stereo unspecified) | 1 | / | -16 | i | -3 | -2 | -2 | -6
CCOc1ccc(Oc2ccc(Cl)cc2N)cc1 | / | / | 8 | i | -10 | 2 | 1 | -5
C=CCn1c(O)c(N=O)c2ccccc21 | -7 | -20 | 9 | i | 4 | 1 | 2 | 5
Cc1ccc(OCCC(=O)N2CCN(c3ccc(O)cc3)CC2)cc1 | 56 | / | 29 | i | 9 | -1 | -5 | -2
Cc1ccc(S(=O)(=O)NC2CC(C)(C)N(O)C(C)(C)C2)cc1 | -4 | -6 | 0 | / | / | -2 | 2 | /
CCOc1cc(C2C(C(=O)c3ccco3)=C(O)C(=O)N2Cc2ccccc2)ccc1O (stereo unspecified) | / | -9 | 19 | i | 14 | 8 | 5 | 4
C=CCNC(=S)NCC | 4 | -24 | -5 | i | 6 | -1 | 2 | -4
C=CCn1c(=O)c2ccc(C(=O)NCc3ccccc3)cc2n(Cc2cccc(Cl)c2)c1=O | -5 | -6 | 28 | i | 4 | / | / | -4
CCN(CC)CCN(Cc1cc2cc3c(cc2[nH]c1=O)OCCO3)C(=S)NCCCN(C)C | -1 | -28 | 3 | i | 28 | 0 | 5 | -3
O=C(COC(=O)c1ccccc1)Nc1cccc(S(=O)(=O)NC2=NCCCCC2)c1 | 6 | / | 7 | i | -8 | 3 | 6 | -2
CCNC(=O)NC(=O)CSc1ccc(NC(C)=O)cc1 | 0 | -9 | / | i | 2 | 8 | 7 | -5
CS(=O)(=O)N(CC(=O)N1CCc2ccccc2C1)Cc1ccccc1 | -10 | 1 | / | i | -6 | -7 | 0 | -6
O=[N+]([O-])c1ccc(/C=N/Nc2nc3ccccc3o2)cc1 | -3 | 6 | -35 | i | -9 | 11 | 8 | 47
COc1cccc(NC(=O)Cn2c(=O)n(CCCC(=O)NCc3ccco3)c(=O)c3ccccc32)c1 | / | 1 | / | i | 4 | 2 | -1 | -12
Cc1cccc(NC(=O)c2ccc(S(=O)(=O)NCc3cccnc3)cc2)c1 | -11 | -18 | 26 | i | 2 | -2 | -12 | 4
Cn1ncc(Br)c1C(=O)NC1CCCCC1 | -13 | -23 | 6 | / | -6 | -3 | 1 | 10
O=C(CCNC(=O)c1ccc([N+](=O)[O-])cc1)Nc1nc2ccccc2[nH]1 | / | -8 | 0 | / | / | 1 | -1 | /
Cc1ccc(CN(CC(=O)NCCc2ccccc2)C(=O)CCCC(=O)Nc2cc(C)on2)cc1 | -13 | -17 | -93 | i | 6 | 4 | 3 | -2
Cc1ccc(S(=O)(=O)NCCc2nc3ccccc3[nH]2)cc1 | 1 | / | 11 | i | -5 | 3 | 6 | -3
CC(C)(C)c1ccc(SCC(N)=O)cc1 | 13 | -10 | / | i | 11 | 4 | 6 | -2
SMILES | CSC inhib | UUG fidelity | HIV Env fusion | Rce1 inhib | PABP FP inh | MT1-MMP act inh | MT1-MMP act inh RFP | eIF4H inh | others
OCCN1CCN(Cc2nc(-c3cccc(Cl)c3)no2)CC1 | 4 | -8 | -7 | i | -2 | 2 | 2 | -9
CC(C)CC(NC(=O)c1ccc(Cl)cc1)C(=O)O (stereo unspecified) | -3 | -15 | -88 | i | 4 | -1 | -1 | 8
COc1cccc(CNC(=O)CSc2ccc(-c3ccco3)nn2)c1 | -4 | / | -4 | i | / | 1 | 7 | /
CCOC(=O)c1cnn(-c2ccccc2)c1NC(=O)CSc1nnc(-c2cccs2)n1CC | -2 | -9 | / | i | 2 | 1 | 1 | 3
OC[C@@H]1CN(Cc2ccccc2)C[C@H](n2cnc3c(NC4CCCC4)ncnc32)O1 | / | -25 | 25 | / | / | 5 | 6 | /
CC1CCN(CCCNC(=O)Cn2ncc3c([nH]c4ccccc43)c2=O)CC1 | -4 | -14 | -1 | i | 5 | 2 | 2 | 1
CCOC(=O)CSc1nnc(CNc2ccc(Cl)cc2)n1-c1ccccc1 | -10 | / | / | i | -8 | -2 | -3 | -6
CCc1cc2ccc(C)cc2nc1SCC(=O)N1CCN(C(=O)c2ccco2)CC1 | / | / | / | i | 3 | -7 | 1 | -6
CCCCN1Cc2cc(C(=O)c3cc(F)ccc3O)cnc2NC1=O | 7 | -38 | / | i | 9 | -4 | -5 | -4
CCCCN1C2CCCC1CC(NC(=O)c1ccc(OC)c(OC)c1)C2 (stereo unspecified) | -9 | -6 | 0 | / | -4 | 4 | 6 | 8
Cc1ccccc1NC(=O)c1cc(S(=O)(=O)Nc2cccc(C(=O)O)c2)ccc1Cl | 9 | 0 | 2 | i | 0 | 1 | 4 | -4
CCNC(=S)NCCN1CCOCC1 | / | -7 | -3 | i | 0 | 3 | 2 | -3
COc1ccc(/C=C/C(=O)OCC(=O)N2c3ccccc3CC2C)cc1OC (stereo unspecified) | / | -15 | -3 | / | / | 1 | 6 | /
O=C(CN1CCN(S(=O)(=O)c2ccccc2F)CC1)NC1CCCC1 | -3 | / | 13 | i | 7 | 2 | 2 | -1
N#Cc1c2ccc(OCC(=O)NCc3ccco3)cc2n2ccccc12 | 12 | 3 | -2 | i | 26 | 1 | 4 | 39
COc1ccc(-c2coc3cc(O)cc(O)c3c2=O)cc1 | 1 | -29 | -12 | i | 118 | 3 | 0 | -3 | eIF4H inh retest=3;PABP FP inh retest=-2
NC(Cc1ccc(OC(F)F)cc1)C(=O)O (stereo unspecified) | 7 | 6 | -8 | i | 7 | 7 | 3 | 3
CCOC(=O)c1cc2c(ccn2C)n1CC(=O)N1CCC(C)CC1 | -8 | -6 | -1 | i | 6 | -2 | 0 | 20
CCCCc1ccc(NC(=O)C2CCCC2)cc1 | 1 | / | -44 | i | / | -2 | -2 | /
Cn1ccnc1SCc1cc(=O)[nH]c2ccccc12 | 6 | -14 | / | i | -2 | 3 | 8 | -8
CCOC(=O)CC1ON(C)C(=O)N1c1ccc([N+](=O)[O-])cc1 (stereo unspecified) | 6 | 3 | / | i | 5 | 2 | -2 | -2

Part of the list above in order of molecular weight, lowest first:
SMILES | CSC inhib | UUG fidelity | HIV Env fusion | Rce1 inhib | PABP FP inh | MT1-MMP act inh | MT1-MMP act inh RFP | eIF4H inh | others
Nc1cc(=O)[nH]c(SCC(=O)c2ccc(O)cc2O)n1 | -3 | -5 | -86 | i | 5 | 1 | 1 | 0
Cc1ccc(S(=O)(=O)NCCc2nc3ccccc3[nH]2)cc1 | 1 | / | 11 | i | -5 | 3 | 6 | -3
COc1ccc(/C=C/C(=O)OCC(=O)N2c3ccccc3CC2C)cc1OC (stereo unspecified) | / | -15 | -3 | / | / | 1 | 6 | /
CCOC(=O)c1cnn(-c2ccccc2)c1NC(=O)CSc1nnc(-c2cccs2)n1CC | -2 | -9 | / | i | 2 | 1 | 1 | 3
